Bioassay records from PubChem BioAssay.
rRNA inh HTS: reduced GFP signal of wild-type E. coli, primary screen, bacterial rRNA inhibitor project, GFP/RFP fluorescence, OD600, single point | E. coli WT GFP vs humanized-ribosome RFP mutants, 24 h; active compounds read low; DMSO median 0, no signal -100 | GFP signal change (wild-type ribosome), % (test concentration not listed) | 350,000 tested, 1.6% active;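 active means significant combined selectivity score with lowered wild-type GFP, culture density cut under 30%, mutant RFP and density less affected; inactive means any of these conditions unmet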; further: one replicate is shown; some compounds called inactive have numbers as strong as hits
rRNA inh HTS OD600: further read-out of rRNA inh HTS, marked with its call; OD600 change, %; measured here: OD600 growth;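 optical density of the mix in the first replicate; 0 = DMSO median and -100 = no signal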
rRNA inh HTS RFP: further read-out of rRNA inh HTS, marked with its call; RFP signal change, %; measured here: RFP humanized mutant strains;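 first replicate; 0 = DMSO median and -100 = no signal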
* = called active by the depositor.

`COCC(=O)Nc1ccc2c(c1)C(=O)N(C)[C@H]1CC[C@@H](CC(=O)Nc3cn(C)nc3C)O[C@H]1CO2` gave rRNA inh HTS 5, rRNA inh HTS OD600 17 and rRNA inh HTS RFP -0.9.
Screening C[C@H]1CN([C@@H](C)CO)C(=O)c2ccccc2-c2ccccc2CO[C@@H]1CN(C)C(=O)c1cc(Cl)cc(Cl)c1 returned rRNA inh HTS 0, rRNA inh HTS OD600 0 and rRNA inh HTS RFP 1.2.
`O=C(Nc1ccc2c(c1)OCO2)N[C@H]1CC[C@H](CCNC(=O)C2CCCC2)O[C@H]1CO` gave rRNA inh HTS 0, rRNA inh HTS OD600 3 and rRNA inh HTS RFP -1.7.
For C[C@@H]1CN([C@@H](C)CO)C(=O)c2cc(NC(=O)NC3CCCCC3)ccc2O[C@@H](C)CCCCO[C@@H]1CN(C)C the results were rRNA inh HTS 3, rRNA inh HTS OD600 4 and rRNA inh HTS RFP 0.4.
For C[C@@H]1CN([C@@H](C)CO)C(=O)c2cc(C#CC3(O)CCCC3)cnc2O[C@H]1CN(C)Cc1cncnc1 the results were rRNA inh HTS 5, rRNA inh HTS OD600 14 and rRNA inh HTS RFP -5.1.
For CO[C@H]1CN(C)C(=O)c2cc(NC(=O)C3CC3)ccc2OC[C@H](C)N(C(=O)CN(C)C)C[C@H]1C the results were rRNA inh HTS 2, rRNA inh HTS OD600 -1 and rRNA inh HTS RFP 0.9.
For C[C@@H]1CCCCO[C@@H](CN(C)C(=O)Nc2ccccc2)[C@H](C)CN([C@H](C)CO)C(=O)c2cc(NC(=O)c3ccncc3)ccc2O1 the results were rRNA inh HTS 0, rRNA inh HTS OD600 -8 and rRNA inh HTS RFP -0.5.
CO[C@H]1CN(C)C(=O)c2ccc(NC(=O)c3ccc(Oc4ccccc4)cc3)cc2OC[C@H](C)NC[C@@H]1C was read as rRNA inh HTS -2, rRNA inh HTS OD600 -20 and rRNA inh HTS RFP 18.
Screening CCCCN(C=O)c1c(CC)nc2c(OCc3ccc(C(F)(F)F)cc3)cccn12 returned rRNA inh HTS -28, rRNA inh HTS OD600 -61 and rRNA inh HTS RFP 4.3.
C[C@H]1CN([C@@H](C)CO)C(=O)c2cc(NC(=O)C3CC3)ccc2O[C@@H]1CN(C)Cc1ccc(Oc2ccccc2)cc1 was read as rRNA inh HTS 4, rRNA inh HTS OD600 -6 and rRNA inh HTS RFP 3.8.
Screening C[C@@H]1CN([C@@H](C)CO)C(=O)c2cc(NC(=O)Nc3ccccc3)ccc2O[C@H]1CN(C)Cc1ccc(Oc2ccccc2)cc1 returned rRNA inh HTS 5, rRNA inh HTS OD600 -9 and rRNA inh HTS RFP 3.0.
COc1ccc(C(C)(NC(C)=O)c2nc(-c3ccc(S(C)(=O)=O)cc3)cs2)cc1 (stereo unspecified) was read as rRNA inh HTS -1, rRNA inh HTS OD600 -1 and rRNA inh HTS RFP -4.9.
For COc1ccc(S(=O)(=O)Nc2ccc3c(c2)CC(=O)N([C@H](C)CO)C[C@H](C)[C@@H](CN(C)CC2CCCCC2)O3)cc1 the results were rRNA inh HTS -5, rRNA inh HTS OD600 -55 and rRNA inh HTS RFP 22.
For Cc1noc(C)c1S(=O)(=O)N(C)C[C@@H]1OCCCC[C@H](C)Oc2ccc(N(C)C)cc2C(=O)N([C@@H](C)CO)C[C@H]1C the results were rRNA inh HTS 1, rRNA inh HTS OD600 6 and rRNA inh HTS RFP -1.7.
`O=C(NCC1CC1)[C@H]1N[C@H]2c3ccc(-c4ccccc4F)c(=O)n3C[C@H]2[C@@H]1CO` gave rRNA inh HTS 3, rRNA inh HTS OD600 -2 and rRNA inh HTS RFP -0.6.
Screening CCC(=O)Nc1ccc2c(c1)OC[C@H](C)N(C(=O)CN(C)C)C[C@@H](C)[C@@H](OC)CN(C)C2=O returned rRNA inh HTS 2, rRNA inh HTS OD600 2 and rRNA inh HTS RFP -0.7.
CO[C@H]1CN(C)C(=O)c2cc(NC(=O)CC(F)(F)F)ccc2OC[C@H](C)N(C(=O)C2CCOCC2)C[C@H]1C was read as rRNA inh HTS 2, rRNA inh HTS OD600 -1 and rRNA inh HTS RFP 2.3.
Screening O=C(c1cccnc1)N1C[C@@H]2[C@H](c3ccccc31)[C@@H](CO)N2CC1CCCC1 returned rRNA inh HTS 1, rRNA inh HTS OD600 0 and rRNA inh HTS RFP 0.2.
`CO[C@@H]1CN(C)C(=O)c2ccc(NC(=O)C3CCC3)cc2OC[C@@H](C)N(C)C[C@H]1C` gave rRNA inh HTS 0, rRNA inh HTS OD600 -5 and rRNA inh HTS RFP -0.2.
`CNC(=O)C[C@@H]1CC[C@@H]2[C@H](COc3ccc(NC(=O)c4ccccc4OC)cc3C(=O)N2C)O1` gave rRNA inh HTS -1, rRNA inh HTS OD600 -1 and rRNA inh HTS RFP 0.0.
For C[C@@H]1CN([C@H](C)CO)C(=O)Cc2cc(NC(=O)Nc3ccc(C(F)(F)F)cc3)ccc2O[C@@H]1CN(C)Cc1ccncc1 the results were rRNA inh HTS 8, rRNA inh HTS OD600 -22 and rRNA inh HTS RFP 7.5.
For CC(C)NC(=O)Nc1ccc2c(c1)CC(=O)N([C@H](C)CO)C[C@H](C)[C@@H](CN(C)S(=O)(=O)c1cn(C)cn1)O2 the results were rRNA inh HTS 6, rRNA inh HTS OD600 12 and rRNA inh HTS RFP -1.2.
For C[C@H]1CN([C@@H](C)CO)S(=O)(=O)c2ccc(C#Cc3ccccc3)cc2O[C@@H]1CN(C)C the results were rRNA inh HTS 2, rRNA inh HTS OD600 0 and rRNA inh HTS RFP 6.9.
`C[C@@H]1CN([C@@H](C)CO)C(=O)c2cc(-c3ccncc3)cnc2O[C@@H]1CN(C)C(=O)NC1CCCC1` gave rRNA inh HTS 3, rRNA inh HTS OD600 -2 and rRNA inh HTS RFP -5.9.
Screening Cc1ccc(S(=O)(=O)N[C@H]2CC[C@@H](CCn3cc(C4(O)CCCC4)nn3)O[C@H]2CO)cc1 returned rRNA inh HTS -13, rRNA inh HTS OD600 -10 and rRNA inh HTS RFP 1.4.
Screening CNC[C@H]1Oc2c(NC(=O)Nc3c(C)noc3C)cccc2C(=O)N([C@@H](C)CO)C[C@H]1C returned rRNA inh HTS 0, rRNA inh HTS OD600 -6 and rRNA inh HTS RFP -0.9.
`Cc1cccc(S(=O)(=O)N2C[C@H]3[C@@H](c4ccccc42)[C@H](CO)N3C(=O)c2ccccc2)c1` gave rRNA inh HTS -14, rRNA inh HTS OD600 -21 and rRNA inh HTS RFP -3.8.
For CN1OC[C@@H]2CN(C(=O)CCc3ccccc3)[C@H](c3ccccc3Br)C[C@@H]21 the results were rRNA inh HTS -3, rRNA inh HTS OD600 -7 and rRNA inh HTS RFP -0.6.
Screening Cc1ccccc1NC(=O)C(C)Sc1nnc(CN2CCCC2)n1Cc1ccccc1 (stereo unspecified) returned rRNA inh HTS 0, rRNA inh HTS OD600 -3 and rRNA inh HTS RFP 0.0.
CCOC(=O)C1=C[C@@H](c2ccccc2)N(S(=O)(=O)c2ccc(C)cc2)[C@H]1c1cccc(Cl)c1 was read as rRNA inh HTS 30, rRNA inh HTS OD600 31 and rRNA inh HTS RFP 1.6.

Molecules above that contain a CF3 group (three):
Screening CCCCN(C=O)c1c(CC)nc2c(OCc3ccc(C(F)(F)F)cc3)cccn12 returned rRNA inh HTS -28, rRNA inh HTS OD600 -61 and rRNA inh HTS RFP 4.3.
CO[C@H]1CN(C)C(=O)c2cc(NC(=O)CC(F)(F)F)ccc2OC[C@H](C)N(C(=O)C2CCOCC2)C[C@H]1C was read as rRNA inh HTS 2, rRNA inh HTS OD600 -1 and rRNA inh HTS RFP 2.3.
For C[C@@H]1CN([C@H](C)CO)C(=O)Cc2cc(NC(=O)Nc3ccc(C(F)(F)F)cc3)ccc2O[C@@H]1CN(C)Cc1ccncc1 the results were rRNA inh HTS 8, rRNA inh HTS OD600 -22 and rRNA inh HTS RFP 7.5.

(more compounds)
Screening C[C@@H]1CN([C@H](C)CO)C(=O)c2c(c3ccccc3n2C)-c2ccccc2CO[C@@H]1CN(C)S(=O)(=O)c1ccccc1 returned rRNA inh HTS 1, rRNA inh HTS OD600 9 and rRNA inh HTS RFP -2.4.
`C[C@H](CO)N1C[C@H](C)[C@H](CN(C)Cc2ccc(Cl)c(Cl)c2)Oc2ccc(NC(=O)CCCN(C)C)cc2C1=O` gave rRNA inh HTS 6, rRNA inh HTS OD600 -6 and rRNA inh HTS RFP 0.1.
Screening CCc1cc2c(nc1CC)CCCN2S(=O)(=O)c1ccc(F)cc1 returned rRNA inh HTS -24, rRNA inh HTS OD600 -57 and rRNA inh HTS RFP -9.9.
For COc1ccc(C(=O)c2[nH]c(N)c(C(=O)NCCc3c[nH]c4ccccc34)c2-c2ccc(Cl)c(F)c2)cc1 the results were rRNA inh HTS -10, rRNA inh HTS OD600 -1 and rRNA inh HTS RFP 8.4.
C[C@@H]1CN([C@@H](C)CO)C(=O)c2cc(C#CCN(C)C)cnc2O[C@H]1CN(C)C was read as rRNA inh HTS 5, rRNA inh HTS OD600 23 and rRNA inh HTS RFP 2.2.
`CCOC(=O)C1CCCN(C(=O)c2cccc(C(F)(F)F)c2)CC1` (stereo unspecified) gave rRNA inh HTS -3, rRNA inh HTS OD600 -16 and rRNA inh HTS RFP 3.1.
CS(=O)(=O)N1CC2(C1)[C@H](c1ccccc1)[C@@H](CO)N2CCC(F)(F)F was read as rRNA inh HTS 3, rRNA inh HTS OD600 6 and rRNA inh HTS RFP -2.4.
`C[C@H]1CCCCO[C@H](CN(C)S(=O)(=O)c2cn(C)cn2)[C@@H](C)CN([C@@H](C)CO)C(=O)c2cc(NC(=O)NC3CCCCC3)ccc2O1` gave rRNA inh HTS 2, rRNA inh HTS OD600 3 and rRNA inh HTS RFP -1.9.
COC(=O)C[C@@H]1CC[C@@H]2[C@H](COc3ccc(NC(=O)c4cc(C)on4)cc3C(=O)N2C)O1 was read as rRNA inh HTS -3, rRNA inh HTS OD600 -5 and rRNA inh HTS RFP 0.1.
Screening Cc1ccc(S(=O)(=O)Nc2ccc3c(c2)C(=O)N([C@H](C)CO)C[C@H](C)[C@H](CN(C)C(=O)c2ccncc2)OCCCC[C@@H](C)O3)cc1 returned rRNA inh HTS 1, rRNA inh HTS OD600 5 and rRNA inh HTS RFP -1.1.

For convenience, four of the compounds above.
Screening C[C@@H]1CN([C@H](C)CO)C(=O)c2c(c3ccccc3n2C)-c2ccccc2CO[C@@H]1CN(C)S(=O)(=O)c1ccccc1 returned rRNA inh HTS 1, rRNA inh HTS OD600 9 and rRNA inh HTS RFP -2.4.
`C[C@H](CO)N1C[C@H](C)[C@H](CN(C)Cc2ccc(Cl)c(Cl)c2)Oc2ccc(NC(=O)CCCN(C)C)cc2C1=O` gave rRNA inh HTS 6, rRNA inh HTS OD600 -6 and rRNA inh HTS RFP 0.1.
Screening CCc1cc2c(nc1CC)CCCN2S(=O)(=O)c1ccc(F)cc1 returned rRNA inh HTS -24, rRNA inh HTS OD600 -57 and rRNA inh HTS RFP -9.9.
For COc1ccc(C(=O)c2[nH]c(N)c(C(=O)NCCc3c[nH]c4ccccc34)c2-c2ccc(Cl)c(F)c2)cc1 the results were rRNA inh HTS -10, rRNA inh HTS OD600 -1 and rRNA inh HTS RFP 8.4.

Next results follow:
For COc1ccc(NC(=O)Nc2cccc3c2O[C@H](CN(C)C(=O)NC(C)C)[C@H](C)CN([C@H](C)CO)C3=O)cc1 the results were rRNA inh HTS 0, rRNA inh HTS OD600 6 and rRNA inh HTS RFP 0.7.
For C[C@H](CO)N1C[C@H](C)[C@H](CN(C)S(=O)(=O)c2cccs2)Oc2c(NC(=O)Nc3ccccc3)cccc2C1=O the results were rRNA inh HTS 0, rRNA inh HTS OD600 -3 and rRNA inh HTS RFP 1.1.
`CO[C@@H]1CN(C)C(=O)c2ccc(NC(=O)c3ccccc3F)cc2OC[C@H](C)N(CC2CCOCC2)C[C@H]1C` gave rRNA inh HTS -8, rRNA inh HTS OD600 -10 and rRNA inh HTS RFP -1.9.
COCc1cn(CC[C@H]2CC[C@@H](NC(=O)c3ccncc3)[C@@H](CO)O2)nn1 was read as rRNA inh HTS 0, rRNA inh HTS OD600 2 and rRNA inh HTS RFP -3.2.
`C[C@@H]1CN([C@@H](C)CO)C(=O)c2cccc(N(C)C)c2O[C@@H]1CN(C)Cc1ccc(-c2ccccc2)cc1` gave rRNA inh HTS -1, rRNA inh HTS OD600 3 and rRNA inh HTS RFP 1.5.
CCC(=O)N(C)C[C@@H]1Oc2cc(C#CC3CC3)ccc2S(=O)(=O)N([C@H](C)CO)C[C@H]1C was read as rRNA inh HTS -28, rRNA inh HTS OD600 -47 and rRNA inh HTS RFP -4.7.
`C[C@H](CO)N1C[C@H](C)[C@@H](CN(C)C(=O)Nc2ccc(C(F)(F)F)cc2)Oc2ccc(NC(=O)CCC(F)(F)F)cc2CC1=O` gave rRNA inh HTS 1, rRNA inh HTS OD600 -1 and rRNA inh HTS RFP 0.1.

These rows are one share of the data. The share of hits here may be higher or lower than overall.
